# Screens deposited in PubChem by National Center for Advancing Translational Sciences (NCATS).
# SARS PLP yeast: SARS-CoV PLP inhibition in yeast. S. cerevisiae expressing SARS-CoV PLpro, growth rescue; control for the full effect not named in the record. Potency, µM (highest dose often 32.9 µM), for inactives: at the top dose activity, positive = growth rescue. 330,000 compounds, 0.19% hits. AID 485353; further: 0% is about no effect; nearly all actives have a fitted effect of over 55% in size; growth read by luminescence after 48 h
# Cruzain noTriton: blocks cruzain activity in detergent-free assay; Potency, µM, for inactives: max response, negative = inhibition, usual class: inhibitors; purified cruzain, Z-FR-AMC fluorescence, no detergent; 200,000 compounds, 2.3% hits; P25779; active means well fitted curve in the direction sought with a large enough effect; inconclusive means small, poorly fitted or top-dose-only effect, or another doubt; inactive means no such curve, though single readings can be large; an effect the other way counts as inactive or inconclusive;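 further: plate controls were enzyme without inhibitor for no effect and buffer without enzyme for full effect; nearly all actives have a fitted effect of over 40% in size; top concentration of the series not given in the record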
# Target sequence (P25779 123-467 limits assumed): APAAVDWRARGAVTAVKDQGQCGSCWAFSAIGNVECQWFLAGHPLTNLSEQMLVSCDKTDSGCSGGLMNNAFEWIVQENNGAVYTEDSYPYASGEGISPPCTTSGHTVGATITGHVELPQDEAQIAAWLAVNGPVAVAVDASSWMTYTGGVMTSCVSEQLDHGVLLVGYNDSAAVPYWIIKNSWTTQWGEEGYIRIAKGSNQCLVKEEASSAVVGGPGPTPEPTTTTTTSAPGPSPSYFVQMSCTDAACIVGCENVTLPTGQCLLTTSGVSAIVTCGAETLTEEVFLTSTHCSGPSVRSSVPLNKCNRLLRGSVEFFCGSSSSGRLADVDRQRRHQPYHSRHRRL
#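 Purified cruzain at 1.5 nM, pre-incubated 15 min with compound at room temperature in 100 mM sodium acetate pH 5.5, 5 mM DTT, 0.00005% Triton X-100. Reaction started with 2 uM Z-FR-AMC; AMC fluorescence increase over 60 s gives rate.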
# MARV entry inh: blocks Marburg virus binding to or entry into cells | Marburg virus pseudotyped entry inhibition, cell reporter; control for the full effect not named in the record; about a third of the inactives were read at about 46 µM | 300,000 compounds, 1.8% hits | AID 540276 | Potency, µM (doses to about 37.8 µM), inactives show at the top dose activity change, negative = inhibition, hits mostly inhibitors; active = well fitted inhibition curve with a large enough effect; inconclusive = small, poorly fitted or top-dose-only effect, or effect the other way; inactive = flat fitted curve, though single readings scatter; tested in HEK293 cells; about a fifth of its hits are not listed in these tables; further: on the % scale 0 is the no-effect control and ±100 the full control effect; luciferase read-out
# LASV entry inh: blocks Lassa virus binding to or entry into cells; Lassa virus pseudotype entry inhibition, cell reporter; control for the full effect not named in the record; Potency, µM (top dose mostly 37.9 µM), without a hit: at the top dose activity change, negative = inhibition, most hits filed as inhibitors; 300,000 compounds, 1.2% hits; AID 540256; active means well fitted inhibition curve with a large enough effect; inconclusive means small, poorly fitted or top-dose-only effect, or effect the other way; inactive means flat fitted curve, though single readings scatter; tested in HEK293 cells; further: on the % scale 0 is the no-effect control and ±100 the full control effect; nearly all actives have a fitted effect of over 50% in size; luciferase read-out
# StopGo reporter: FMDV 2A StopGo reporter, luciferase signal; human cells with a luciferase reporter of 2A StopGo recoding; control for the full effect not named in the record; Potency, µM (highest dose often 57.9 µM), inactives show at the highest dose signal change, negative = less light; 410,000 compounds, 1.2% hits; AID 1159524; active = well fitted falling curve with a large enough effect; inconclusive = small, poorly fitted or top-dose-only effect; inactive = no such curve, though single readings can be large or run the other way; tested in HEK293T cells; further: on the % scale 0 is the no-effect control and ±100 the full control effect; nearly all actives have a fitted effect of over 45% in size; luciferase light after 4 h
# RE007 growth inh: less growth of the S. pombe RE007 Vpr strain; S. pombe RE007 Vpr strain, BacTiter-Glo ATP luminescence, 24 h; control for the full effect not named in the record; Potency, µM (top dose mostly 92.2 µM), for the others: at the top dose activity change, negative = less growth; 360,000 compounds, 0.21% hits; AID 651644; active = well fitted falling curve with a large enough effect; inconclusive = small, poorly fitted or top-dose-only effect; inactive = no such curve, though single readings can be large or run the other way;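 further: on the % scale 0 is the no-effect control and ±100 the full control effect; nearly all actives have a fitted effect of over 50% in size; the assay follows cell death caused by Vpr and the record does not say whether a fall means rescue or toxicity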
#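 Fission yeast RE007 carrying one integrated HIV-1 vpr copy, seeded at OD 0.01 in PMG+AL medium with 23 nL pinned compound. Grown 24 h at 30 degrees; viability read by BacTiter-Glo luminescence after 5 min.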
# NS1 inh: inhibitors of influenza NS1 protein function; S. cerevisiae slowed by influenza A NS1, growth recovery by OD600; Potency, µM (doses to about 46.1 µM), without a hit: at the top dose activity, positive = more growth; 270,000 compounds, 0.4% hits; AID 2326; further: actives are rising curves; nearly all actives have a fitted effect of over 50% in size
#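 S. cerevisiae expressing influenza A NS1, grown in glucose, washed, then diluted 1:100 into pH 6.0 -URA galactose medium with 23 nl compound. Growth recovery read as OD600; NS1-free strain serves as control.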
# Cruzain Triton: blocks cruzain activity in presence of Triton detergent; Potency, µM, inactives show max response, negative = inhibition, most hits filed as inhibitors; P25779; purified cruzain, Z-FR-AMC fluorescence, 0.01% Triton; 200,000 compounds, 0.43% hits; active means well fitted curve in the direction sought with a large enough effect; inconclusive means small, poorly fitted or top-dose-only effect, or another doubt; inactive means no such curve, though single readings can be large; an effect the other way counts as inactive or inconclusive;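 further: plate controls were neutral wells for no effect and buffer without enzyme for full effect; nearly all actives have a fitted effect of over 40% in size; top concentration of the series not given in the record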
#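 Compounds were screened in titration against cruzain (1.5 nM) with 0.01% Triton X-100 to counter colloidal aggregation. Activity was the AMC fluorescence increase over 60 s after adding 2 uM Z-FR-AMC at pH 5.5.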
# * marks the source's active call; other numbers are inactive results; ? = inconclusive; · = not tested or not shown; & = joins results of further samples; [ ] = remark or other dose. Unless noted, the call rests on the fitted dose curve; in most records, active means well fitted rising curve with a large enough effect; inconclusive means small, poorly fitted or top-dose-only effect; inactive means no such curve, though single readings can be large or run the other way. Potency means the concentration at half of the fitted maximal effect.
SMILES,SARS PLP yeast,Cruzain noTriton,MARV entry inh,LASV entry inh,StopGo reporter,RE007 growth inh,NS1 inh,Cruzain Triton
COc1cccc(-c2ocnc2C(=O)Nc2ccc(N3CCOCC3)cc2N2CCOCC2)c1,1.7%,·,2.2%[46.1 µM],-21.2%[46.1 µM],-0.6%,-2.6%,10.8%,·
Cc1ccc(NC(=O)C2CCCN(S(=O)(=O)c3ccc(C)cc3)C2)cc1 (centres undefined),·,5.9%,6.0%[46.1 µM],-3.2%[46.1 µM],?,·,·,-4.4%
Cc1cc(C)c(OCC(=O)Nc2ccc(S(=O)(=O)N3CCCC3)cc2)c(C)c1,-0.1%,·,?,?,21.8%,112.1%,·,·
COc1ccccc1N(CC(=O)NC(C)(C)C)C(=O)C1CSC(=O)C1 (centres undefined),17.8%,6.7%,9.7%,-8.9%,-27.8%,-1.3%,-29.4%,-0.7%
c1ccc(-n2nnc3cnccc32)cc1,3.2%,3.1%,10.6%,10.9%,19.0%,-22.0%,-12.1%,-2.4%
COc1cccc(Cn2c(SCC(=O)N3CCN(c4ccc(F)cc4)CC3)nc3ccccc32)c1,·,5.8%,5.6%[46.1 µM],·,-26.6%,·,·,-0.3%
COCCn1c(=S)[nH]c2sc3c(c2c1=O)CCCC3,1.1%,·,3.2%[46.1 µM],-7.5%[46.1 µM],8.1%,6.3%,-26.6%,·
COc1ccc(NS(=O)(=O)c2cccc3nonc23)c(OC)c1,7.9%,-9.4%,-20.7%,3.5%,-9.5%,-12.8%,?,3.2%
CC(NC(=O)OCc1ccccc1)C(=O)N1CC(O)CC1C(=O)O (centres undefined),1.0%,-4.7%,10.6%,8.8%,10.9%,39.1%,2.3%,1.7%
COc1cccc(C(=O)NCC2(c3ccccc3)CCCC2)c1,0.2%,·,0.1%[46.1 µM],-13.7%,-27.0%,46.9%,3.0%,·
CCOc1ccc(C(C)=O)cc1COC(=O)c1cnc(Cl)c(Cl)c1,1.7%,·,-27.4%[46.1 µM],-0.3%,6.3%,11.9%,·,·
Cc1ccc(-n2ncc(C(=O)NCCN3CCOCC3)c2C2CCN(C(=O)OC(C)(C)C)CC2)c(C)c1,·,-0.7%,·,-28.5%[46.1 µM],-7.4%,·,·,0.2%
Cc1ccc(OCc2nc(C#N)c(NCCCn3ccnc3)o2)cc1,-5.2%,7.0%,-15.9%,12.1%,-4.2%,4.7%,-6.0%,7.2%
COc1ccc(SCCC(=O)NCc2ccncc2)cc1,-1.4%,·,-16.9%,-10.7%,-12.9%,-7.3%,-3.3%,·
N#CCC(=O)Nc1ccc(C(=O)NCCc2c[nH]c3ccccc23)cc1,1.1%,·,-8.0%[46.1 µM],3.3%[46.1 µM],9.6%,0.9%,1.6%,·
CC(=O)COc1cc(C)cc2oc(=O)c(C)c(C)c12,-5.7%,?,15.5%,0.2%,-16.0%,3.7%,-12.2%,12.2%
Cc1cccc(-n2c(C)nc3ccccc3c2=O)c1C,0.8%,·,4.2%[46.1 µM],-0.5%,-24.6%,17.2%,0.2%,·
Cc1cn2c(=O)c(S(=O)(=O)N3CCN(c4cc(Cl)ccc4C)CC3)c(C)nc2s1,·,-2.5%,·,21.1%[46.1 µM],-9.4%,·,·,-0.9%
CCN(CC)S(=O)(=O)c1cccc(NC(=O)COC(=O)c2cccs2)c1,-1.3%,·,-0.9%[46.1 µM],-10.3%[46.1 µM],-10.2%,-1.8%,·,·
O=C(c1ccccc1)N1c2nc(-c3ccco3)nn2C2(CCCCC2)[C@@H]2CCCC[C@@H]21,·,-1.4%,?,19.4%[46.1 µM],-7.1%,·,·,-1.8%
CCCc1nc2c(c(=O)c3ccccc3n2C)c(=O)n1C1CCCCCC1,-0.3%,-28.3%,?,?,?,-16.6%,8.0%,-1.8%
Cc1nc(NC2=NCN(CCCN3CCOCC3)CN2)nc2c(C)cccc12,2.6%,25.1µM*,?,?,-19.5%,-3.2%,4.3%,?
COc1ccc(CNC(=O)CN(c2ccc(OC)cc2)S(=O)(=O)c2c(C)nn(C)c2C)cc1,-27.0%,?,-10.7%&17.0%,-17.0%&-9.9%,-15.0%,1.1%,-9.0%,-1.7%
c1ccc2c(c1)NC1(CCCC1)n1c-2nc2ccccc21,-11.2%,-1.5%,?,-1.5%,·,-11.6%,-37.3%,-27.6%
CCOC(=O)NC1(C(F)(F)F)NC(=O)N(Cc2ccco2)C1=O (centres undefined),-1.7%,-4.4%,7.3%,6.8%,5.3%,-8.9%,9.9%,1.5%
CC(=NNC(=O)c1cccc(S(=O)(=O)N2CCCC2)c1)c1ccccc1,0.5%,·,26.8%,5.5%,31.6%[activator],-17.9%,·,·
O=C(O)COc1ccc(/C=C/C(=O)c2ccc(C3CCCCC3)cc2)cc1,-5.5%,·,13.8%[46.1 µM],2.7%[46.1 µM],-5.2%,7.8%,?,·
O=C(Cc1ccccc1)Nc1cccc([N+](=O)[O-])c1,0.1%,·,6.9%,3.4%,9.2%,-16.0%,·,·
CN1CCN(c2ccc(NC(=S)NC(=O)c3cccc4c(Br)cccc34)cc2)CC1,7.9%,·,?,-20.0%[46.1 µM],-16.8%,3.3%,11.6%,·
COc1ccc(/C=N/Nc2nc(Nc3ccccc3)nc(N3CCCCC3)n2)cc1OC,-8.7%,-1.1%,?,16.5%,14.2%,-8.6%,27.3%,-5.5%
Cn1nnnc1SCCCNCc1cc(Cl)ccc1OCc1ccccc1,·,10.3%,?,-3.4%[46.1 µM],-26.1%,·,·,-3.9%
CCC1(c2ccccc2)NC(=O)N(CC(=O)N(c2ccccc2)C2CCS(=O)(=O)C2)C1=O (centres undefined),1.2%,·,?,11.9%[46.1 µM],-13.2%,-13.6%,·,·
CCn1c(SCC(=O)C(C)(C)C)nnc1-c1cnccn1,2.0%,0.0%,1.0%,-2.9%,0.0%,14.1%,-2.9%,-1.5%
CCOc1ccc(NC(=O)CCSc2ccc3ccccc3n2)cc1,-28.1%,5.7%,-20.4%,?,14.3%,21.4%,-10.6%,1.9%
COCCN(Cc1nc(C(c2ccccc2)c2ccccc2)no1)C(C)C,-4.9%,·,-0.3%[46.1 µM],-16.5%[46.1 µM],1.0%,-21.2%,-23.5%,·
C/C(=N\Nc1nc(-c2ccc(C)cc2)nc2ccccc12)c1ccc([N+](=O)[O-])cc1,6.7%,1.6%,·,·,·,·,-13.0%,4.7%
Cc1ccc(Nc2nc(C)cc(C)c2C(N)=O)c(C)c1,-0.6%,·,·,·,1.9%,-6.6%,14.0%,·
O=S(=O)(Nc1cccc(-c2ccc(N3CCCCCC3)nn2)c1)c1ccccc1F,-1.3%,?,·,?,60.4%&44.5%[activator],7.5%,-5.4%,-3.0%
CCOc1ccccc1N1C(=O)NC(=O)/C(=C/c2ccc3c4c(cccc24)CC3)C1=O,-6.1%,4.6%,1.8%,-8.3%,39.8µM*,-16.3%,5.9%,-5.8%
COc1ccc(C2=NN(c3nc4ccccc4s3)C(=O)C2)cc1,-1.8%,·,22.5%[46.1 µM],27.1%,-18.2%,13.5%,10.2%,·
O=C(NCCCN1CCOCC1)c1cc2c(s1)CSC2,7.6%,-22.1%,2.8%,0.3%,10.2%,2.0%,-5.7%,-2.9%
COc1cc2c(-c3ccc4[nH]ccc4c3)c(-c3ccc(C#N)cc3)oc(=O)c2cc1OC,-17.2%,·,-1.0%,·,-10.0%,-6.0%,·,·
COc1ccc2c(CSc3nc4nc(C)cc(C)n4n3)cc(=O)oc2c1,4.8%,5.4%,4.6%,-1.0%,-13.9%,-9.6%,-5.8%,1.2%
COc1ccc(C(=O)NCC23C=CC(O2)C2C(=O)N(Cc4ccccc4)C(=O)C23)cc1 (centres undefined),-30.5%,8.7%,-0.7%,-9.2%,?,25.1µM*,-22.9%,1.7%
CC1CCCC(NC(=O)C2CCN(S(=O)(=O)N3CCOCC3)CC2)C1C (centres undefined),3.1%,1.8%,-2.2%,25.4%,0.8%,13.9%,-2.5%,6.2%
CCOc1ccc(N2CC(C(=O)NCCN3C(=O)S/C(=C/c4cccnc4)C3=O)CC2=O)cc1 (centres undefined),-4.2%,·,-9.1%,-5.6%,-3.2%,7.5%,·,·
COc1ccc(C(=O)Nc2cccc([N+](=O)[O-])c2)cc1Br,·,·,?,?,-27.2%,-6.6%,·,·
O=C(NCCc1ccccc1)c1cc(S(=O)(=O)N2CCCCC2)c[nH]1,·,-1.2%,·,-24.2%[46.1 µM],5.9%,·,·,-2.2%
CCn1cc2nc(SCc3cccc(F)c3)n(CCc3ccccc3)c(=O)c2n1,·,?,·,?,?,·,·,-3.3%
Cc1ccc(-c2nn3c(C)nnc3s2)cc1NC(=O)c1ccc(-c2cccc(Cl)c2)o1,?,23.2%,9.2µM*,?,?,-8.4%&26.3%,8.8%,-24.8%
Cc1cccc(CN2CCc3nc(N4CCN(c5ccccn5)CC4)ncc3C2)c1,·,-1.5%,·,-30.0%[46.1 µM],14.1µM*,·,·,-0.6%
N#CC1=C(N)Oc2cc(N)ccc2C1c1cccc(Br)c1 (centres undefined),-3.0%,·,·,·,-14.8%,-11.9%,12.3%,·
Cc1cc(C(=O)N2CCN(C/C=C/c3ccccc3)CC2)cs1,?,3.1%,11.7%,9.9%,-18.3%,3.8%,2.4%,4.3%
CCOC(=O)c1ccc(S(=O)(=O)Nc2nc3cc(S(=O)(=O)NC4=NCCCCC4)ccc3s2)cc1,3.0%,·,5.1%[46.1 µM],-25.8%,25.3%,-2.7%,·,·
O=C(NCCc1ccc(Cl)cc1)C1CCC(CNc2c(N3CCCCC3)c(=O)c2=O)CC1 (centres undefined),14.0%,-3.5%,-2.5%,-1.4%,0.0%,6.3%,-35.7%,-2.1%
